FGF22 binding – shifts melting point of recombinant human FGF22; recombinant FGF22 thermal shift, SYPRO orange fluorescence; percent of sucrose octasulfate shift, DMSO zero; Q9HCT0; 1.5% of 340,000 active; calls only at 9.99 µM;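 active = melting point raised past a set limit in the mean and every replicate; three in four hits are not shown here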
Target sequence (Q9HCT0 whole entry, looked up): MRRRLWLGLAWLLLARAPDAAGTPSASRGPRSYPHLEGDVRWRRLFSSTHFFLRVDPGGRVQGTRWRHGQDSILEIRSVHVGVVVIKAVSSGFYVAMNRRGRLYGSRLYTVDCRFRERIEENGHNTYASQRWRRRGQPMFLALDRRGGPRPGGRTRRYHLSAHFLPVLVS
Ecoli rRNA inh – inhibits bacterial ribosomal RNA function over humanized ribosomes. 1.6% of 350,000 active. E. coli WT GFP vs humanized-ribosome RFP mutants, fluorescence, 24 h; stronger effect = lower value; DMSO median 0, no signal -100. GFP signal change (wild-type ribosome), % (test concentration not listed);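 active = significant combined selectivity score with lowered wild-type GFP, culture density cut under 30%, mutant RFP and density less affected; inactive = any of these conditions unmet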; also: one replicate is shown; some compounds called inactive have numbers as strong as hits
AF4-AF9 inh – inhibitors of human MLL-AF4/AF9 interaction; P42568; AlphaScreen, biotin-AF4 peptide binding to FLAG-AF9; inhibition, % at 10 µM; 0.47% of 350,000 active;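 active = every replicate reaching a set inhibition limit, whatever the replicate mean, cut at about 25% in these data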;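 also: 0% = plate neutral control median and 100% = total signal loss; the record names both 10 and 1 µM as test concentration; the first replicate is given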
Target sequence (P42568 whole entry, looked up): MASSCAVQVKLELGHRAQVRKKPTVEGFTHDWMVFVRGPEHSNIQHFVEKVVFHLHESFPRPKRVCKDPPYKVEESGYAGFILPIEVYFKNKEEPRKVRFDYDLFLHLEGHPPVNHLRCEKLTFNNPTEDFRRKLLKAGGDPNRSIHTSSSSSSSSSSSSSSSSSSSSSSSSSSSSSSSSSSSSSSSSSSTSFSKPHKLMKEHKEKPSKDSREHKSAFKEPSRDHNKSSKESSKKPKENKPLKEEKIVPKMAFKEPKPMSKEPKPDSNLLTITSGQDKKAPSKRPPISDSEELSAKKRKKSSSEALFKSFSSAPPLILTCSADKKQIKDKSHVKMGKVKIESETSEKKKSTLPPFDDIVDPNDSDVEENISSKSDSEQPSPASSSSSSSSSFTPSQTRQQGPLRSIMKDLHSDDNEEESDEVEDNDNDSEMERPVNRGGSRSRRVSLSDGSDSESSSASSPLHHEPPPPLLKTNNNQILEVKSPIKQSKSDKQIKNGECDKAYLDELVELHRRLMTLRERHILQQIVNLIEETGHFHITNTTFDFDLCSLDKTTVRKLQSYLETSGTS
Ecoli rRNA inh OD600 – second read-out of Ecoli rRNA inh, no call of its own (marks repeat the call); OD600 change, %; measured here: OD600 growth;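 optical density of the mix in the first replicate; 0 = DMSO median and -100 = no signal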
Ecoli rRNA inh RFP – second read-out of Ecoli rRNA inh, no call of its own (marks repeat the call); RFP signal change, %; measured here: RFP humanized mutant strains;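 first replicate; 0 = DMSO median and -100 = no signal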
Starred values were filed as active, the others as inactive; i = inactive; & = joins results of further samples. Not all compounds are listed; the hit share may differ from the screen's.

mol	Ecoli rRNA inh RFP	FGF22 binding	AF4-AF9 inh	Ecoli rRNA inh OD600	Ecoli rRNA inh
C[C@@H]1CN([C@H](C)CO)C(=O)c2c(c3ccccc3n2C)-c2ccccc2CO[C@H]1CN(C)C(=O)Nc1ccccc1	0.7&5.3	i	2.5	-7.8&-2.1	-1.2&3.7
CO[C@@H]1CN(C)C(=O)c2cc(NS(=O)(=O)c3ccccc3C)ccc2OC[C@H](C)N(C)C[C@H]1C	-0.5	i	-2.7	1.0	2.6
CO[C@@H]1CN(C)C(=O)c2cc(NC(C)=O)ccc2OC[C@H](C)N(C(=O)CN(C)C)C[C@H]1C	-1.6	i	-0.1	1.5	0.7
C[C@@H]1CN([C@@H](C)CO)C(=O)c2cc(NC(=O)Cc3cn(C)c4ccccc34)ccc2O[C@@H]1CN(C)Cc1ccc(-c2ccccc2)cc1	0.3	i	0.7	-4.5	1.5
COc1ccccc1N1CCN(c2ccc3c(c2)S(=O)(=O)c2cccc(C(=O)NCC4CC4)c2C3=O)CC1	-0.2	i	4.9	-6.0	-3.9
CC=Cc1ccc2n(c1=O)C[C@H]1[C@H](CO)[C@@H](C(=O)NCC3CC3)N(C(=O)CC3CC3)[C@@H]21 (mixture of isomers)	-0.6	i	-2.6	5.2	2.7
Cc1ccc2nc(C(C)(C)C)c(Cc3cccc(F)c3)n2c1	-11.5	i	4.1	-73.3	-42.5
CO[C@H]1CN(C)C(=O)c2cc(NC(=O)Nc3ccccc3Cl)ccc2OC[C@H](C)NC[C@@H]1C	-0.1	i	0.3	-2.2	0.8
CCOc1ccccc1OCCCC(=O)N1CCN(S(=O)(=O)c2cc(F)ccc2F)CC1	2.5*	i	-2.3	-12.3*	-20.5*
COc1ccc(NC(=O)N(C)C[C@H]2Oc3ccc(NC(=O)C4CCCCC4)cc3C(=O)N([C@@H](C)CO)C[C@H]2C)cc1	-1.5	i	-2.8	9.0	2.0
CCC(=O)N1C[C@H](C)[C@H](OC)CN(C)C(=O)c2cc(NC(=O)C3CCCCC3)ccc2OC[C@@H]1C	-1.1	i	-0.6	1.3	0.3
COc1ccccc1-c1cccc2nccn12	2.8	i	0.1	9.2	9.1
CCCc1cn(CC[C@@H]2CC[C@H](NC(=O)C3CCC3)[C@@H](CO)O2)nn1	2.5	i	-2.8	-5.2	-1.8
COc1cc(Cn2c3ccc(NC(=O)CCc4ccc(O)cc4)cc3c(=O)n2C)ccc1F	-0.5	i	-4.0	3.2	2.8
CC1C=CC(C)C(C(=O)c2ccccc2)C1C(=O)c1ccccc1 (centres undefined)	-7.3	i	-4.3	-27.1	-11.0

Record cards, from the list above. Order of screens: Ecoli rRNA inh RFP	FGF22 binding	AF4-AF9 inh	Ecoli rRNA inh OD600	Ecoli rRNA inh
Record of `CCC(=O)N1C[C@H](C)[C@H](OC)CN(C)C(=O)c2cc(NC(=O)C3CCCCC3)ccc2OC[C@@H]1C` = -1.1	i	-0.6	1.3	0.3
Record of `COc1cc(Cn2c3ccc(NC(=O)CCc4ccc(O)cc4)cc3c(=O)n2C)ccc1F` = -0.5	i	-4.0	3.2	2.8

More structures.
mol	Ecoli rRNA inh RFP	FGF22 binding	AF4-AF9 inh	Ecoli rRNA inh OD600	Ecoli rRNA inh
O=C(C[C@H]1C=C[C@H](NC(=O)C2CCC2)[C@@H](CO)O1)Nc1nccs1	-3.1	i	1.3	6.8	-0.1
CC(=O)Nc1ccc(S(=O)(=O)Nc2nnc(C)s2)cc1	-0.9	i	-3.5	-2.1	8.3
COc1cccc(S(=O)(=O)Nc2ccc3c(c2)[C@@H]2C[C@H](CC(=O)NCCc4ccccc4)O[C@@H](CO)[C@@H]2O3)c1	6.0	i	-2.6	-22.9	-11.0
O=C(C[C@@H]1C[C@H]2c3cc(NC(=O)NC4CCCC4)ccc3O[C@H]2[C@H](CO)O1)NCc1ccncc1	2.3	i	-2.5	0.1	-1.3
N#C[C@@H]1[C@H](c2ccc(C#Cc3ccc(F)cc3)cc2)[C@@H](CO)N1C(=O)C1CCCC1	-1.5	i	-1.2	-4.4	0.4
COCC(=O)Nc1ccc2c(c1)[C@@H]1C[C@H](CC(=O)NC3CCCCC3)O[C@@H](CO)[C@@H]1O2	-1.6	i	-0.9	-0.4	1.2
COc1ccc(-c2cnc3c(c2)C(=O)N([C@@H](C)CO)C[C@H](C)[C@H](CN(C)C(=O)Cc2cccnc2)O3)cc1	-2.5	i	-4.3	-1.9	-0.2
C[C@H](CO)N1C[C@H](C)[C@H](CN(C)C(=O)CC2CC2)Oc2cc(-c3ccncc3)ccc2S1(=O)=O	-2.2	i	-3.2	1.0	-2.0
S=C1SCN(Cc2cccs2)CN1Cc1cccs1	-2.8	i	1.4	-36.6	-14.0
C[C@@H]1CCCCO[C@@H](CN(C)C(=O)Cc2ccccc2)[C@H](C)CN([C@H](C)CO)C(=O)c2cc(NS(C)(=O)=O)ccc2O1	-0.6	i	3.2	-0.2	-5.1
C/C=C/c1ccc([C@H]2[C@@H](CO)N(S(=O)(=O)c3cccc(F)c3)[C@H]2C#N)cc1	14.9	i	4.3	-17.4	-3.6
C[C@@H]1CN([C@@H](C)CO)C(=O)c2cccc(NC(=O)Nc3ccc4c(c3)OCO4)c2O[C@H]1CN(C)Cc1ccc(Cl)c(Cl)c1	0.3	i	-1.9	-12.8	-5.2
O=C(Nc1cccc(Cl)c1)N[C@@H]1CC[C@H](CCNC(=O)C2CCCCC2)O[C@H]1CO	1.9	i	0.3	-1.4	-4.4
CN(C)C(=O)c1ccc(-c2ccc3c(c2)[C@H]2[C@H](CCN2C(=O)c2cnccn2)[C@H](CO)N3)cc1	-0.4	i	-5.0	6.5	-2.0
CN(C)Cc1cn(CC[C@H]2CC[C@H](NS(=O)(=O)c3ccccc3)[C@@H](CO)O2)nn1	-1.7	i	-2.8	8.8	-1.4

Four compounds drawn at random from those above, as already listed:
mol	Ecoli rRNA inh RFP	FGF22 binding	AF4-AF9 inh	Ecoli rRNA inh OD600	Ecoli rRNA inh
COc1ccc(-c2cnc3c(c2)C(=O)N([C@@H](C)CO)C[C@H](C)[C@H](CN(C)C(=O)Cc2cccnc2)O3)cc1	-2.5	i	-4.3	-1.9	-0.2
O=C(C[C@@H]1C[C@H]2c3cc(NC(=O)NC4CCCC4)ccc3O[C@H]2[C@H](CO)O1)NCc1ccncc1	2.3	i	-2.5	0.1	-1.3
COCC(=O)Nc1ccc2c(c1)[C@@H]1C[C@H](CC(=O)NC3CCCCC3)O[C@@H](CO)[C@@H]1O2	-1.6	i	-0.9	-0.4	1.2
C[C@@H]1CCCCO[C@@H](CN(C)C(=O)Cc2ccccc2)[C@H](C)CN([C@H](C)CO)C(=O)c2cc(NS(C)(=O)=O)ccc2O1	-0.6	i	3.2	-0.2	-5.1

New compounds follow
mol	Ecoli rRNA inh RFP	FGF22 binding	AF4-AF9 inh	Ecoli rRNA inh OD600	Ecoli rRNA inh
O=C(NCC[C@H]1CC[C@@H](NS(=O)(=O)Cc2ccccc2)[C@H](CO)O1)C1CC1	0.7	i	-0.7	3.5	-1.1
C[C@H](CO)N1C[C@H](C)[C@H](CN(C)Cc2ccc(C(F)(F)F)cc2)Oc2c(NC(=O)C3CCCCC3)cccc2C1=O	-7.4	i	2.9	-5.4	-4.7
COCC(=O)Nc1ccc2c(c1)C(=O)N(C)C[C@@H](OC)[C@@H](C)CN(C(=O)c1ccccn1)[C@H](C)CO2	1.3	i	3.2	9.8	0.3
Cc1noc(C)c1NC(=O)Nc1ccc2c(c1)C(=O)N([C@@H](C)CO)C[C@@H](C)[C@@H](CN(C)S(=O)(=O)c1cn(C)cn1)OCCCC[C@@H](C)O2	-0.6	i	-1.4	3.0	0.3
Cc1cccc(C)c1NC(=O)C(c1ccccc1)N1CCN(C/C=C/c2ccccc2)CC1 (centres undefined)	29.3	i	2.6	-51.5	-22.0
Cc1ccc(S(=O)(=O)N(C)C[C@H]2Oc3c(NC(=O)Nc4c(C)noc4C)cccc3C(=O)N([C@H](C)CO)C[C@@H]2C)cc1	-3.8	i	1.6	-4.1	-3.2
COc1ccc(-c2ccc3n(c2=O)C[C@@H]2[C@@H](CO)[C@H](C(=O)N(C)C)N(CC4CCCC4)[C@H]32)cc1	4.5	i	-4.7	-5.1	-5.0
O=C(C[C@@H]1C=C[C@@H](NC(=O)Nc2ccc(C(F)(F)F)cc2)[C@H](CO)O1)NCCN1CCCC1	2.4	i	5.0	1.9	-0.5
COc1cccc(N2C(=O)CC(N3CCN(S(=O)(=O)c4ccccc4[N+](=O)[O-])CC3)C2=O)c1 (centres undefined)	-0.4	i	-0.1	-1.5	1.4
C[C@@H]1CN([C@@H](C)CO)C(=O)c2cc(-c3ccccc3)cnc2O[C@@H]1CN(C)C(=O)NC1CCCC1	-2.7	i	-1.7	7.6	2.5
COc1ccc(-c2ccc([C@H]3[C@@H](CO)N4CCCCN(S(=O)(=O)c5cccs5)C[C@@H]34)cc2)cc1	0.5	i	-3.6	6.8	-4.4
C[C@H](CO)N1C[C@H](C)[C@H](CN(C)Cc2cccc3c2OCCCO3)OCc2ccccc2-c2ccccc2C1=O	0.3	i	6.4	1.8	1.1
C[C@H](CO)N1C[C@H](C)[C@H](CN(C)C(=O)c2ccncc2)OCCCC[C@H](C)Oc2ccc(NS(=O)(=O)c3ccc(F)cc3)cc2C1=O	-1.8	i	-1.5	-3.9	-0.9
O=C(Nc1ccc(Cl)cc1)N1C[C@H]2[C@@H](c3ccccc31)[C@@H](CO)N2CC1CCCCC1	0.4	i	0.2	-66.5	-34.7
C[C@H]1CN([C@@H](C)CO)S(=O)(=O)c2ccc(C#Cc3ccncc3)cc2O[C@H]1CN(C)C(=O)C1CC1	1.1	i	2.4	0.3	-4.8

mol	Ecoli rRNA inh RFP	FGF22 binding	AF4-AF9 inh	Ecoli rRNA inh OD600	Ecoli rRNA inh
COc1ccc(NC(=O)N(C)C[C@H]2Oc3cc(C#CCC(C)C)ccc3S(=O)(=O)N([C@H](C)CO)C[C@H]2C)cc1	0.3	i	2.5	-0.3	2.2
C[C@H](CO)N1C[C@H](C)[C@H](CN(C)C(=O)c2ccccc2)OCCCC[C@H](C)Oc2ccc(NC(=O)Nc3ccc(C(F)(F)F)cc3)cc2C1=O	2.1	i	0.9	3.1	0.7
CCCC#Cc1cnc2c(c1)C(=O)N([C@@H](C)CO)C[C@@H](C)[C@H](CN(C)C(=O)c1ccccc1)O2	-3.3	i	-0.2	10.8	0.8
C[C@H](CO)N1C[C@H](C)[C@@H](CN(C)C(=O)Nc2ccccc2)Oc2c(NS(C)(=O)=O)cccc2C1=O	-0.5	i	-3.1&-3.1	0.1	-2.3
CC(=O)N1[C@@H]2c3ccc(/C=C/c4ccccc4)c(=O)n3C[C@@H]2[C@@H](CO)[C@@H]1C(=O)Nc1nccs1	2.8	i	-7.3	3.4	-2.3
C[C@@H]1CN([C@H](C)CO)S(=O)(=O)c2ccc(C#Cc3ccccc3F)cc2O[C@@H]1CN(C)CC1CC1	21.0	i	6.2	-15.0	-1.1
Cc1noc(C)c1NC(=O)N(C)C[C@@H]1OCCCC[C@H](C)Oc2ccc(NS(=O)(=O)c3c(C)noc3C)cc2C(=O)N([C@H](C)CO)C[C@@H]1C	1.6	i	2.3	12.7	4.4
O=C(c1cccc(F)c1)N1CC(=O)N2[C@H](CO)[C@H](c3ccc(/C=C/c4ccccc4)cc3)[C@@H]2C1	0.9	i	8.2	-23.4	1.0
COc1cccc(C#Cc2cnc3c(c2)C(=O)N([C@H](C)CO)C[C@@H](C)[C@H](CN(C)C(=O)C2CCOCC2)O3)c1	-1.6	i	0.3	0.4	-2.8
CC(C)NC(=O)N(C)C[C@@H]1Oc2ccc(NC(=O)NC3CCCCC3)cc2CC(=O)N([C@H](C)CO)C[C@H]1C	-0.6	i	-4.3	1.8	0.3
C[C@@H]1CN([C@@H](C)CO)C(=O)Cc2cc(N(C)C)ccc2O[C@@H]1CN(C)S(=O)(=O)c1cn(C)cn1	-1.7	i	-1.5	5.5	1.2
N#C[C@H]1[C@H](c2ccccc2-c2ccccc2F)[C@@H](CO)N1C(=O)Cc1ccccc1	-1.7	i	-0.9	-17.7	-7.7
CC(C)C[C@@H]1Cc2[nH][nH]c(=O)c2[C@H](c2ccc(Cl)cc2)O1	-3.3	i	0.4	-10.1	3.0
COc1cccc(-c2ccc3c(c2)[C@@H]2[C@@H](CCN2C(=O)Cc2ccccc2)[C@@H](CO)N3)c1	28.3	i	-1.8	-37.5	-9.3
CCS(=O)(=O)NCC[C@H]1CC[C@H](NC(=O)C2CCOCC2)[C@@H](CO)O1	1.7	i	-4.0	8.8	3.6

mol	Ecoli rRNA inh RFP	FGF22 binding	AF4-AF9 inh	Ecoli rRNA inh OD600	Ecoli rRNA inh
CC(C)NC(=O)N1CCCCN2[C@H](C1)[C@@H](c1ccc(C#C[C@H](C)O)cc1)[C@@H]2CO	-4.0	i	-7.5	19.3	5.6
O=C(C[C@@H]1C[C@@H]2c3cc(NC(=O)c4ccc5c(c4)OCO5)ccc3O[C@@H]2[C@H](CO)O1)NC1CCCC1	0.9	i	-1.8	5.9	0.2
C[C@H]1CN([C@@H](C)CO)C(=O)Cc2cc(NC(=O)NC3CCCCC3)ccc2O[C@H]1CN(C)S(=O)(=O)c1ccc(Cl)cc1	2.9	i	1.7	-12.1	0.3
COc1cccc(-c2ccc([C@H]3[C@@H](CO)N4CCCCN(CC5CC5)C[C@H]34)cc2)c1	1.1	i	9.0	1.1	-0.2

Bioassay records as filed in PubChem.
